Assay outcomes: PubChem, SRMLSC
H5N1 antiviral – MDCK cell protection from H5N1 avian flu; cytopathic effect, luminescence, 72 h; hits give high values; no value below 0 was filed and about half of the inactive calls have no number; reference of the scale not given here; inhibition, % at 50 µM; actives 0.07% (n = 96,000); in the data active means inhibition above about 25%
* = called active by the depositor; i = inactive. These rows are one share of the data. The share of hits here may be higher or lower than overall.

structure	H5N1 antiviral
CCN1CCN(CC(=O)Nc2sc3c(c2C#N)CCC(C)C3)CC1 (configuration not stated)	i
Fc1ccccc1N1CC(c2ccccc2)C(c2cccs2)=N1 (configuration not stated)	1.1
CCCNC(=O)Nc1ccccc1C(=O)Nc1ccc(OC)cc1	i
N#Cc1cc(Oc2cccnc2)c(Oc2cccnc2)cc1C#N	2.2
Cc1cc(C)n(-c2nc(-c3ccccc3)cs2)n1	i
COC(=O)c1cc(=O)n2c(-c3ccc(OC)cc3)csc2n1	1.2
CC(C)NC(=O)c1cccc(C(F)(F)F)c1	i
CCOc1ncccc1C(=O)OCC(=O)NCCc1ccc(OC)cc1	i
CS(=O)(=O)N1CCC(C(=O)Nc2ccccc2)CC1	i
O=C(NCCCN1CCOCC1)c1c(O)c2ccccc2[nH]c1=O	0.4
CCSc1nnc(Cc2cc(=O)[nH]c(=O)[nH]2)n1-c1cc(C)ccc1C	i
CCCCc1c(O)nc(N2CCN(Cc3ccccc3)CC2)[nH]c1=O	0.3
O=C(Oc1ccc(=O)n(-c2ccccc2)n1)c1cccc(Cl)c1	i
CCOc1ccc2nc(-c3ccccc3)nc(SCC(=O)Nc3ncc(C)s3)c2c1	0.5
N#Cc1ccc(CSc2nnc(NC(=O)C3CCCO3)s2)cc1 (configuration not stated)	0.5
CCOc1cc(/C=C(/C#N)c2nc3ccccc3[nH]2)ccc1OCc1ccc(C(=O)O)o1	0.4

In the list so far, these have an aryl thioether with sulfur outside any ring.
structure	H5N1 antiviral
CCSc1nnc(Cc2cc(=O)[nH]c(=O)[nH]2)n1-c1cc(C)ccc1C	i
CCOc1ccc2nc(-c3ccccc3)nc(SCC(=O)Nc3ncc(C)s3)c2c1	0.5
N#Cc1ccc(CSc2nnc(NC(=O)C3CCCO3)s2)cc1 (configuration not stated)	0.5

Further records:
structure	H5N1 antiviral
CC(=O)Nc1ccc(NC(=O)Cn2cnc3c(cnn3C(C)(C)C)c2=O)cc1	i
COC(=O)c1ccc(NC(=O)C(C)N2C(=O)c3ccccc3C2=O)cc1 (configuration not stated)	i
C=C(C)c1cccc(C(C)(C)NC(=O)NCC2COCCO2)c1 (configuration not stated)	i
O=C(Nc1ccccc1)c1ccc(NCc2ccco2)c(S(=O)(=O)N2CCOCC2)c1	1.3
CCOC(=O)N1CCN(C(=O)c2ccc3nc(N4CCC(C)CC4)sc3c2)CC1	i
O=C(NCCCn1ccnc1)C(F)(F)C(F)(F)C(=O)NCCCn1ccnc1	i
N#Cc1cc(N)ccc1Sc1ccc(Cl)cc1	i
COCCn1c(SCC(=O)Nc2ncc(Cl)c(C)c2Cl)nc2ccccc21	i
O=C1c2ccccc2NC(c2ccc3c(c2)OCO3)N1O (configuration not stated)	2.5
CCOC(=O)Cc1csc(SCc2nc3sc4c(c3c(=O)[nH]2)CCC4)n1	2.3
CC1CN(c2oc(Cc3cccc4ccccc34)nc2C#N)CC(C)O1 (configuration not stated)	1.5
Cc1cc(C)c(C#N)c(SCC(=O)Nc2ccc(S(=O)(=O)Nc3onc(C)c3C)cc2)n1	0.9
CCCC1CC(c2csc(N)n2)CCO1 (configuration not stated)	0.3
CCOc1ccc(N=C2NC(=O)S/C2=C\c2ccc(OC)cc2)cc1	0.8
Cn1c(/N=C/c2ccc3c(c2)OCO3)nc2ccccc21	1.1
CN(C)C(=O)c1cn(-c2ccccc2)nc1-c1cccs1	0.7
CCOc1ccc(NC(=O)CCN2CCN(S(=O)(=O)c3cc(Cl)ccc3OC)CC2)cc1	i
CC1=Nn2c(nc(-c3ccccc3)c2-c2ccccc2)NC(=O)C1Br (configuration not stated)	i
O=c1c2ccccc2nc(SCc2cn3ccsc3n2)n1-c1ccc(F)cc1	1.1
O=C(Oc1ccc2ccccc2c1)c1cncc(Br)c1	i
O=C(c1cccs1)N1CCCc2ccccc21	0.4
O=C(Nc1cc(C(F)(F)F)ccc1N1CCCCC1)c1cccc([N+](=O)[O-])c1	0.8
CCOP1(=S)Oc2cc3c(cc2C(C(=O)OC)(C(F)(F)F)O1)OCO3 (configuration not stated)	0.6
O=C(c1cccs1)N1CCC(c2nc(-c3ccc(S(=O)(=O)N4CCOCC4)cc3)no2)CC1	i
Cc1ccccc1NC(=O)/C(=C/c1ccco1)c1ccccc1	7.6
COCC(C)n1c(C)cc(C(=O)CSc2ccc(NC(C)=O)cc2)c1C (configuration not stated)	1.9
COc1ccc(N2CCN(CC(=O)Nc3cc(C)on3)CC2)cc1	0.1
Cc1nnc(SCC(=O)NCc2cccs2)n1-c1ccccc1	0.3
O=C(c1cc(-c2ccc(O)cc2)on1)N1CCc2ccccc2C1	i
CC(C)(CSc1nncn1N)NS(=O)(=O)c1ccc(Cl)cc1	0.9
O=C(NCc1ccc2c(c1)OCO2)c1ccc(CS(=O)(=O)c2cccc(C(F)(F)F)c2)o1	i
CCc1cccc(C)c1NC(=O)c1ccoc1C	i
CCOC(=O)C1=C(C)NC2=C(C(=O)CCC2)C1c1ccsc1 (configuration not stated)	0.3
O=c1[nH][nH]c(C(F)(F)F)c1C=Nc1ccccc1	0.4
Cc1cc(NC(c2cccnc2)c2c(C)[nH]c3ccccc23)no1 (configuration not stated)	1.0
CC1Cc2nc(SCC(=O)N3CCN(c4ccccc4)CC3)n(CCc3ccccc3)c(=O)c2S1 (configuration not stated)	i
O=C(CN1CCN(S(=O)(=O)c2ccccc2)CC1)NC(=O)NCc1ccccc1	i
CC1CCN(C(=O)CNC(=O)c2ccc(Cl)cc2Cl)CC1	i
O=C1C(=O)N(c2ccccc2)c2ccccc21	0.3
Cc1ccc(Nc2nc3c([nH]2)c(=O)[nH]c(=O)n3C)cc1	1.1

Remaining list, next part:
Compound | H5N1 antiviral
COc1cccc(NC(=O)CSc2nc(C)cs2)c1 | i
O=C(NCCn1ccc2ccccc21)c1ccc(S(=O)(=O)N2CCCCC2)cc1 | 1.8
CCC(=O)NCCCCCCNC(=O)CC | 0.6
O=C(CSC1=NCCS1)Nc1ccnc2ccccc12 | 2.3
CCOC(=O)C(C)Sc1nnc(CNC(=O)c2ccc(OC)cc2)n1C1CCCCC1 (configuration not stated) | 0.8
CC1(C)NC(=O)N(CCCOc2ccc(Br)cc2Cl)C1=O | 2.2
O=C(NCCc1csc(-c2cccnc2)n1)c1ccccc1 | 2.1
S=c1[nH]nc(C2CC2)n1Cc1ccco1 | 1.3
CCc1cccc(C)c1NC(=O)CSc1nc2ccccc2n1CC(=O)N(C)C | 0.2
O=C1C=C(Nc2cccc(Cl)c2)CC(c2ccco2)C1 (configuration not stated) | i
Cc1nc2nc(C)c(CCC(=O)N3CCOCC3)c(C)n2n1 | 0.1
Cc1ccc([N+](=O)[O-])cc1NC(=O)c1ccc(C(C)(C)C)cc1 | i
COc1ccc(-n2c(C)c(C(C)=O)c(C(C)=O)c2C)cc1 | i
O=C(O)c1cc2nc3c(c(C(F)(F)F)n2n1)CCc1ccccc1-3 | 1.2
COc1ccc(OC)c(N(CC(=O)Nc2cccnc2)S(C)(=O)=O)c1 | 0.7
CCCCC(=O)c1c(C)cc(C)[nH]c1=O | 0.2
Cc1ccc(OCc2nnc(SCC(=O)N3CCOCC3)n2C)cc1 | 0.1
O=C(CSc1nc2ccccc2o1)c1cc2ccccc2oc1=O | i
Cc1ccc(N(NC(=O)C(C)(C)O)C(=O)c2ccccc2)cc1C | 0.8
COc1ccc(CNc2nc3c(c(=O)[nH]c(=O)n3C)n2Cc2ccccc2C)cc1 | i
Cc1ccc2c(COC(=O)C3=COCCO3)cc(=O)oc2c1 | 1.3
Cc1ccc(-c2nn(CC(=O)NCc3ccco3)c(=O)c3ccccc23)cc1 | 1.9
CCN1CCN(c2c(Cl)cccc2NC(=O)c2ccc3c(c2)OCCO3)CC1 | 0.1
O=[N+]([O-])c1ccc(C2CCCC/C2=N/OCc2ccc(F)cc2)c([N+](=O)[O-])c1 (configuration not stated) | 3.7
O=C(Nc1ccc(S(=O)(=O)NCc2ccco2)cc1)c1ccncc1 | i
Cc1cc(-c2cccs2)n[nH]1 | i
CC1CCN(c2cc(N)c(Cl)cc2[N+](=O)[O-])CC1 | 2.5
CCC1Sc2ccccc2N(CC(=O)NCc2ccc3c(c2)OCO3)C1=O (configuration not stated) | i
CCCC(=O)Nc1nnc(-c2ccco2)s1 | i
CCOC(=O)N1CCN(C(=O)c2oc(=O)c3ccccc3c2-c2ccc(C)cc2)CC1 | 0.5
N#CCCN(C(=O)CSc1ccc2c(c1)OCCO2)c1ccccc1 | 1.1
CCN1CCN(C(=O)C2c3cc(OC)c(OC)cc3C(=O)N(C)C2c2ccc(SC)cc2)CC1 (configuration not stated) | i
O=C(CSc1ccc(Cl)cc1)OCc1nnc(-c2ccccc2)o1 | i
CCOC(=O)c1nnc(-c2cccs2)nc1Oc1ccc(Cl)cc1 | 0.9
CCCOc1ccc(S(=O)(=O)NCCCN2CCOCC2)c2ccccc12 | 1.2
CCNC(=O)C1CC(=O)N(c2ccc(Br)cc2)C1 (configuration not stated) | 0.4
COc1ccc(CCNC(=O)CN(c2ccc(C)cc2)S(=O)(=O)c2c(C)noc2C)cc1OC | 0.5
Cc1noc(C)c1S(=O)(=O)N(CC(=O)Nc1ccc2c(c1)OCO2)c1ccc(C(C)C)cc1 | i
O=C(CSc1ncc(C(F)(F)F)cc1Cl)N1CCN(S(=O)(=O)c2ccccc2)CC1 | 0.5
CCC(C)NC(=O)C1CCN(S(=O)(=O)c2ccc(OC)cc2)CC1 (configuration not stated) | 0.6
COc1ccc(C(=O)Nc2ccc3c(c2)nc(CN2CCN(C(C)=O)CC2)n3C)cc1 | 0.6
CN(c1ccccc1C(=O)Nc1ccccc1C(=O)NCc1ccco1)S(C)(=O)=O | 2.7
CC1CC(C)CN(C(=O)C2CCCN(S(=O)(=O)c3cccc4nonc34)C2)C1 (configuration not stated) | 1.4
CCCN1CCN(c2ncnc3c2nnn3Cc2ccccc2)CC1 | i
CC(C)(C)c1csc(NC(=O)Cn2c(=O)oc3ccccc32)n1 | i
Cc1cc(NC(=O)C2C3C(=O)N(Cc4ccc(Cl)cc4)C(C(=O)NC(C)(C)C)C34C=CC2(C)O4)no1 (configuration not stated) | i
COc1ccc(S(=O)(=O)Nc2ccc3c(c2)OCO3)cc1Cl | i
O/N=C1\CC(O)Cc2nonc21 (configuration not stated) | i
CN(Cc1ccccc1)S(=O)(=O)c1ccc(C(=O)Nc2nnc(C3CC3)o2)cc1 | i
Cc1cc(C)nc(NC(=O)C(c2ccccc2)c2ccccc2)n1 | 0.2

Structures from the list above containing a cyano group, in the order listed:
Compound | H5N1 antiviral
CCN1CCN(CC(=O)Nc2sc3c(c2C#N)CCC(C)C3)CC1 (configuration not stated) | i
N#Cc1cc(Oc2cccnc2)c(Oc2cccnc2)cc1C#N | 2.2
N#Cc1ccc(CSc2nnc(NC(=O)C3CCCO3)s2)cc1 (configuration not stated) | 0.5
CCOc1cc(/C=C(/C#N)c2nc3ccccc3[nH]2)ccc1OCc1ccc(C(=O)O)o1 | 0.4
N#Cc1cc(N)ccc1Sc1ccc(Cl)cc1 | i
CC1CN(c2oc(Cc3cccc4ccccc34)nc2C#N)CC(C)O1 (configuration not stated) | 1.5
Cc1cc(C)c(C#N)c(SCC(=O)Nc2ccc(S(=O)(=O)Nc3onc(C)c3C)cc2)n1 | 0.9
N#CCCN(C(=O)CSc1ccc2c(c1)OCCO2)c1ccccc1 | 1.1

(further entries)
Compound | H5N1 antiviral
CC(C)(C)n1nnnc1C(c1cccs1)N(Cc1ccccc1)Cc1ccco1 (configuration not stated) | 1.6
COc1ccccc1CNc1ccc(N2CCOCC2)c(C(=O)O)c1 | 0.8
CCOC(=O)C1CCCN(C(=O)c2cc(-c3ccc(C)cc3)on2)C1 (configuration not stated) | 1.1
O=C(c1ccccc1)c1ccc2nc(N3CCN(C(=O)c4ccco4)CC3)c3nncn3c2c1 | 2.5
CN(C)/C=C1/Sc2ccccc2C1=O | i
CCOP(=O)(OCC)C(NC(=O)C(C)C)C(Cl)(Cl)Cl (configuration not stated) | i
O=C(CCC(=O)N1CCOCC1)Nc1nnc(C2CCCCC2)s1 | i
CCN(CC)C(=O)C1CCC(CNS(=O)(=O)c2cccc3cccnc23)CC1 (configuration not stated) | 0.8
COc1cc(CN2CCN(c3cc(C)ccc3C)CC2)ccc1O | i
Cc1cc2nn(-c3cccc4ccccc34)nc2cc1N | i
Cc1cc(C)cc(NC2=NCC(=O)N2Cc2ccccc2)c1 | i
CCOC(=O)c1ccc(NC(=O)CC2COc3ccccc3O2)cc1 (configuration not stated) | i
N#Cc1c(-c2ccco2)c2c([nH]c1=S)CCCC2 | 2.4
CCOC(=O)C(CCCOc1cccc(CC)c1)C(=O)OCC | 0.3
COc1ccc(/C=N/n2cnnc2SCCO)cc1OC | 1.4
O=c1c2oc3ccccc3c2ncn1Cc1ccccc1F | 0.9
Cc1cc(C)n(C(=O)CCNC(=O)c2ccccc2Br)n1 | i
COc1cc([C@H]2[C@@H]3CCCC[C@]3(O)CCN2CC(=O)Nc2ccc(C)cc2C)ccc1O | i
Cc1ccc(-n2ncc3c(=O)n(-c4ccc(C)c(C)c4)c(C)nc32)cc1 | 1.8
Cc1ccc(-c2nnc(CSc3nnc(COc4cccc5ccccc45)n3-c3ccccc3)o2)cc1 | 5.6
Nc1sccc1C(=O)c1ccccc1 | i
CCCCSc1nc(N)c(C#N)c(-c2cccs2)c1C#N | i
CCCCn1c(O)c(C=NCCCN(C)C)c(=O)[nH]c1=O | i
Cc1nc(SCC(=O)O)c2oc3ccccc3c2n1 | 0.6
COc1ccc(/C=N/NC2=NCCCCC2)cc1 | i
NC(=O)C1(N2CCCCC2)CCN(C(=O)c2ccccc2)CC1 | i
O=C(Nc1ccc(N2CCN(C(=O)c3ccccc3)CC2)cc1)c1ccc(Br)o1 | i
CCCNS(=O)(=O)c1ccc(C(=O)NCC2CCCO2)cc1 (configuration not stated) | 0.1
COc1ccc(-c2nc(-c3ccccc3)nc(N3CCN(C)CC3)c2C#N)cc1 | i
COc1ccccc1CNc1nc2ccccc2n1CCN1CCCCC1 | i
